# Mtb MbtI inh = blocks the Mycobacterium tuberculosis siderophore enzyme MbtI. purified MbtI enzyme, fluorescence intensity read-out. 0.89% of 100,000 active. inhibition, %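 (about 17 µg/mL by stock and volumes)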;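 active = above 50% in both replicates, above 80% if mildly self-fluorescent; inactive = the rest, strongly fluorescent compounds included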;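 also: 0% = mean of negative and 100% = mean of positive controls; one replicate is shown; some compounds called inactive have numbers as strong as hits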
# Target sequence (P9WFX0 whole entry, looked up): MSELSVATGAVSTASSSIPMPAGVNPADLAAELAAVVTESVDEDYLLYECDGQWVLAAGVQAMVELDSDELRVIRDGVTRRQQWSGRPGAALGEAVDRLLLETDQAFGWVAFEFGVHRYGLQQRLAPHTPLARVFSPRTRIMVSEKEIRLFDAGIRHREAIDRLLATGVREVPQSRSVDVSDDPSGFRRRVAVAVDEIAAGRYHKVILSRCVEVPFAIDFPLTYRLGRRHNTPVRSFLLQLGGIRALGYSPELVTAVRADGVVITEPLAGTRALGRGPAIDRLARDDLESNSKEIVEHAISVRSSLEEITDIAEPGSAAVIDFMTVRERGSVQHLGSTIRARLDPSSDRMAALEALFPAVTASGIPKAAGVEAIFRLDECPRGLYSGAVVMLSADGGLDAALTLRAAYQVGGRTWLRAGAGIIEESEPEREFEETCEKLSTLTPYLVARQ
# Polio RdRp inh = poliovirus RNA polymerase inhibition. 0.66% of 150,000 active. % elongation, % (compound at 16.7 µg/mL). poliovirus polymerase elongation, fluorescence polarization; stronger effect = lower value. AID 588519; in the data active = % elongation below about 90%; also: some results filed as inactive read as strong as hits
# Target sequence (P03300 1749-2209 limits assumed): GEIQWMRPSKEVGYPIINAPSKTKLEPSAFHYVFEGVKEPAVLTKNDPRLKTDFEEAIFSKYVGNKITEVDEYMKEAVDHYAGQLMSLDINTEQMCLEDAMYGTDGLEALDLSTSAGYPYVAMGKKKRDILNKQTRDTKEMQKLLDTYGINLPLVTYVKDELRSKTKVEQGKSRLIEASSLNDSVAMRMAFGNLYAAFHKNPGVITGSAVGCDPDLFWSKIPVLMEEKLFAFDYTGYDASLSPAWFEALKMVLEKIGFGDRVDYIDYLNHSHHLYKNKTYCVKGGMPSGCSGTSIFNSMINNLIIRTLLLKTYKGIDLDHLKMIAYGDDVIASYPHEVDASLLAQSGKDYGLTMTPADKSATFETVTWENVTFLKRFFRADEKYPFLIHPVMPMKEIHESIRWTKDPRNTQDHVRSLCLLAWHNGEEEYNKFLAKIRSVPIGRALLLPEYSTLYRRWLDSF
# Mtb MenB inh = inhibitors of Mycobacterium tuberculosis MenB enzyme; 0.43% of 100,000 active; inhibition, %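 (about 12 µg/mL by stock and volumes)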; P9WNP5; AID 540299; MenB enzyme assay, absorbance read-out; some hits fall short of the stated cut;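 active = mean of two replicates above 30%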;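 also: 0% = no compound and 100% = wells with inactive enzyme; the first replicate is given; strong numbers were not always called active; inactives centre near -10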
# Polio RdRp inh intensity = also measured in Polio RdRp inh; calls as there; % elongation; measured here: total intensity read-out; formula for this scale not given here;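 total fluorescence in place of polarization; lower means less elongation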
# Starred values were filed as active, the others as inactive; i = inactive; . = not tested or not shown.
SMILES,Mtb MbtI inh,Polio RdRp inh,Polio RdRp inh intensity,Mtb MenB inh
COc1cc(OC)cc(C(=O)N[C@H](C(=O)Nc2c(C)n(C)n(-c3ccccc3)c2=O)C(C)C)c1,-5,100,108,3
NC(=O)C1CCN(C(=O)c2ccc3nc(N4CCCCC4)sc3c2)CC1,-5,104,105,-6
O=C(Cc1ccccc1)Nc1cccnc1,10,101,104,25
CC12CC[C@H](CC1=O)C2(C)C,-28,100,100,8
O=C(CC(C(=O)O)N1CCN(c2ccc3c(c2)OCO3)CC1)c1ccc(C2CCCCC2)cc1 (configuration not stated),.,101,91,-17
COc1ccc(NC(=O)CC2C(=O)OCC3CCCCN32)cc1OC (configuration not stated),-10,106,102,-1
CCc1ccc(N=Cc2c(O)[nH]c(=S)[nH]c2=O)cc1,12,102,103,-14
COc1c(Br)csc1C(=O)NN,4,100,102,11
COC(=O)c1ccc(COc2c(I)cc(Cl)c3cccnc23)o1,-5,105,102,-21
COC(=O)c1ccc(C(C)N(C)C)o1 (configuration not stated),-6,101,102,12
CCOC(=O)CSc1cc(Cl)c2cccc(C)c2n1,.,106,113,-5
S=C(NCC1COc2ccccc2O1)NC1CCCCC1 (configuration not stated),.,109,106,-33
O=c1c2ccccc2[nH]c(=S)n1-c1ccc(Cl)c(Cl)c1,-10,107,102,-6
Cc1ccc(-n2c(C)c(C)c(C#N)c2N)cc1,23,99,109,5
CCOC(=O)c1nc2c3c4c(sc3ncn2n1)COC(C)(C)C4,-6,100,106,3
Cc1ccccc1NC(=O)C1c2cccc[n+]2CC(=O)N1Cc1ccc2c(c1)OCO2 (configuration not stated),-5,101,110,-2
Cc1cc(C(=O)OC(C)C(=O)Nc2ccc(Oc3ccccc3)cc2)c(C)o1 (configuration not stated),10,102,94,-45
CC(SCC(=O)NC1CCCCCC1)c1nc2ccccc2c(=O)[nH]1 (configuration not stated),4,105,107,5
CN(C)c1cccc(C(=O)N2N=C(C(F)F)CC2(O)C(F)F)c1 (configuration not stated),-7,102,102,-13
Nc1ccc(Oc2ccc3c(c2)C(=O)N(CCO)C3=O)cc1,1,102,102,0

# Entries above that have an NH in an aromatic ring, in the order listed:
SMILES,Mtb MbtI inh,Polio RdRp inh,Polio RdRp inh intensity,Mtb MenB inh
CCc1ccc(N=Cc2c(O)[nH]c(=S)[nH]c2=O)cc1,12,102,103,-14
O=c1c2ccccc2[nH]c(=S)n1-c1ccc(Cl)c(Cl)c1,-10,107,102,-6
CC(SCC(=O)NC1CCCCCC1)c1nc2ccccc2c(=O)[nH]1 (configuration not stated),4,105,107,5

# The results go on:
SMILES,Mtb MbtI inh,Polio RdRp inh,Polio RdRp inh intensity,Mtb MenB inh
CC(C)c1ccc(OCc2ccc(C(=O)OCCN3CCCCC3)o2)cc1,0,102,102,16
Cc1csc(C(C#N)C(=O)CSc2nncn2-c2ccccc2)n1 (configuration not stated),4,105,103,6
CC1(C)C(=O)Nc2ccccc2N1C(=O)Cn1cnc2sccc2c1=O,-2,112,115,-7
Cc1ccc(OCC(O)CN2C(=O)c3ccccc3C2=O)cc1 (configuration not stated),-12,100,103,-13
Cc1ccc(-n2cnnn2)cc1S(=O)(=O)NC(C)(C)C,-12,105,100,-44
CC(C)(C)SC(=O)c1cccnc1SCCS(=O)(=O)c1cccc(C(F)(F)F)c1,-6,103,108,-46
CCN(CC(=O)NCc1cccs1)C(=O)c1ccc(C)s1,2,104,107,-7
Cc1ccc(C)c(CSc2nncn3c2cc2occc23)c1,22,103,105,-13
CC1CCCN(C(=O)CSc2ncnc3ccccc23)C1 (configuration not stated),4,106,110,-33
CCCOc1ccc(C(=O)Nc2ccc3c(c2)Cc2ccccc2-3)cc1,3,101,98,-9
CCOC(=O)c1oc2cc(N)ccc2c1C,110,106,104,-1
NS(=O)(=O)c1ccc(CCNC(=O)c2ccc(S(=O)(=O)N3CCCCC3)cc2)cc1,11,106,114,-27
O=C(NCCc1ccccc1)C1CCCN(S(=O)(=O)c2ccc3[nH]c(=O)oc3c2)C1 (configuration not stated),1,101,101,-24
O=C1/C(=C/c2ccco2)Cc2ccccc21,8,97,104,-74
CCC(CC)c1nc2ccccc2n1C,-6,102,108,-17
Cc1cc(C(=O)O)c(C)n1-c1cc(C(F)(F)F)cc(C(F)(F)F)c1,-13,102,109,-1
O=S(=O)(Cc1ccccc1Cl)N1CCN(Cc2ccc3c(c2)OCO3)CC1,.,106,109,-21
Cc1ccc(-c2nnc(N3CCCCC3)c3ccccc23)cc1S(=O)(=O)NCc1ccccn1,.,106,104,-14
CCc1ccc(NC(=O)Cn2ncn3cccc3c2=O)cc1,-3,101,106,10
C=CCn1c2ccc(Br)cc2c2n[nH]c(=S)nc21,.,103,110,-22

# By substructure: the compounds so far containing a tert-butyl group (2)
SMILES,Mtb MbtI inh,Polio RdRp inh,Polio RdRp inh intensity,Mtb MenB inh
Cc1ccc(-n2cnnn2)cc1S(=O)(=O)NC(C)(C)C,-12,105,100,-44
CC(C)(C)SC(=O)c1cccnc1SCCS(=O)(=O)c1cccc(C(F)(F)F)c1,-6,103,108,-46

# Next entries follow.
SMILES,Mtb MbtI inh,Polio RdRp inh,Polio RdRp inh intensity,Mtb MenB inh
Cc1nc2ccccc2c(=O)o1,8,94,96,-10
O=S1(=O)N=C(Nc2nc(-c3ccccc3)cs2)c2ccccc21,.,106,111,-28
Cn1nc(CC(=O)Nc2nn[nH]n2)c2ccccc2c1=O,-4,103,102,11
CN1C(=O)/C(=C/c2ccccc2Cl)Sc2ccc(C(=O)N3CCN(C(=O)c4ccco4)CC3)cc21,9,99,102,-14
C=CCn1c(SCc2cccc(C#N)c2)nnc1C12CC3CC(CC(C3)C1)C2,-22,101,103,-7
CN1CC(=O)Nc2ccccc2C1=O,7,99,100,-24
CCOC(=O)c1ccc(NC(=O)c2ccco2)cc1,.,107,111,-7
N#C/C(=C\c1cn(CCOc2ccccc2)c2ccccc12)C(=O)N1CCCC1,-8,99,102,-123
CC(CCc1ccccc1)NC(=O)C1CCN(S(=O)(=O)N2CCOCC2)CC1 (configuration not stated),-10,103,107,1
CCOC(=O)Cc1csc(NC(NC(=O)CC)(C(F)(F)F)C(F)(F)F)n1,3,97,101,-5
COc1ccc(-c2noc(CN3CCCCC3)n2)cc1OC,-1,102,102,-17
COc1ccc2cc3cc(C(=O)NCCc4ccc(OC)c(OC)c4)oc3nc2c1,88,104,102,-18
O=S(=O)(Nc1ccccn1)N1CCCCCC1,0,106,100,-33
Cc1ccc(CNC(=O)c2ccc(Cl)cc2)c(=S)[nH]1,.,106,110,-40
Cc1sc(C)c(CNc2ccccc2)c1CNc1ccccc1,.,103,111,-10
COc1c(N2CCNC(C)C2)c(F)cc2c(=O)c(C(=O)O)cn(C3CC3)c12 (configuration not stated),-55,100,102,5
Fc1ccc(C(CCCN2CCN3CCCCCC3C2)c2ccc(F)cc2)cc1 (configuration not stated),.,102,104,-14
O=C(NCCO)c1c(Cl)nc2ccccn12,-2,104,107,.
CC(=O)Nc1ccc(SC(F)(F)F)cc1,0,103,97,.
CCC(=O)Nc1ccc(Cl)c(NC(=O)c2cc3ccccc3o2)c1,77,100,101,-31
COc1ccc(-c2nc(C)c(CCNS(=O)(=O)N(C)C)s2)cc1,106,101,101,-10
CCOC(=O)c1sc(NS(=O)(=O)c2ccccc2C(F)(F)F)cc1C,4,105,105,-17
CCc1nnc2c3ccccc3nc(NCc3cccnc3)n12,97,101,102,-5
CN(C(=O)c1ccco1)C1(c2ccccc2Cl)CCCCC1=O (configuration not stated),0,97,102,6
CCc1ccc(NC(=O)N2CCC(CN3CCc4ccccc4C3)CC2)cc1,15,103,102,3
C=CC1CCC(N(Cc2ccccc2)S(=O)(=O)c2ccc(C)cc2)C(O)C1 (configuration not stated),-11,104,108,-2
N#CCCN1C(=O)NC(Cc2ccccc2)(c2ccccc2)C1=O (configuration not stated),-4,102,101,4
Cc1cc(C)nc(Nc2ccc(Nc3ccccc3)cc2)n1,-3,100,104,-1
O=C1/C(=C/c2ccc(O)cc2)NC(=S)N1c1ccccc1,18,106,105,i
COc1cc(CN2CCN(c3ncccn3)CC2)ccc1O,-6,101,103,-29
O=C(CNC(=O)OCc1ccccc1)NC1CCCCCC1,-3,102,100,-54
CC(C)CCN1NC2(CCCC(C)C2)NC1=S (configuration not stated),1,100,102,2
O=C(Nc1cccc(Cl)c1)N1CCN(CCO)CC1,.,100,100,-6
O=C(NCC(F)(F)F)c1ccc(S(=O)(=O)N2CCCc3ccccc32)cc1,-8,99,100,-2
O=C(NCC1COc2ccccc2O1)c1cccc(S(=O)(=O)N2CCOCC2)c1 (configuration not stated),-12,101,102,-17
CC(C)(C)OC(=O)Nc1cccc(C(=O)OCC(=O)Nc2ccc(N3CCOCC3)cc2)c1,13,100,102,-11
Cc1ccc(N2Cc3cc(C)c(C)cc3C2)cc1,7,99,102,10
CCCn1c(SCc2nc(-c3cccs3)no2)nnc1-c1ccncc1,-3,102,102,1
Cc1cc(Br)ccc1NC(=S)Nc1cccc(NC(=O)c2ccccc2O)c1,-18,105,112,-50
O=C1CCC(c2ccccc2)CC1,-9,102,101,.
FC(F)(F)Oc1ccc(N=Cc2cccs2)cc1,-12,103,108,.
O=C(O)CCc1nc2cc3ccccc3cc2[nH]1,.,102,102,-45
CC(CCCC(C)(C)O)CC1OCC(C)O1 (configuration not stated),-6,102,100,21
O=C(Cn1[nH]c(=O)c2ccccc2c1=O)N1CCc2ccccc2C1,-3,105,113,12
O=C(N/N=C/c1ccc(OC(F)F)cc1)c1cc(-c2ccco2)nc2ccccc12,-20,102,109,-51
CC(NC(=O)Nc1cccc2ccccc12)C1CCCO1 (configuration not stated),-50,101,106,6
CN[C@@H]1[C@H](O[C@H]2[C@H](O[C@@H]3[C@@H](O)[C@H](O)[C@@H](N=C(N)N)[C@H](O)[C@H]3N=C(N)N)O[C@@H](C)[C@]2(O)CO)O[C@@H](CO)[C@H](O)[C@H]1O,-2,103,100,-2
Cc1cc(C(=O)NNc2c(Cl)cc(Cl)cc2Cl)nn1C,9,102,97,8
CCOC(=O)c1c(N)nn(C(=O)CC)c1-c1ccccc1,.,109,107,-1
COc1ccc(OCC(=O)NC(=S)N2CCCc3ccccc32)cc1,14,100,100,-24
Cc1ccc(NC2=NC(C(=O)Nc3ccc(F)c(Cl)c3)CC(=O)N2)cc1 (configuration not stated),-5,104,99,-11
Cc1ccc2nc(NC(=O)OC(C)(C)C)sc2c1,.,114,132,-69
CNC(=O)c1nnc(-c2ccccc2)o1,-4,103,104,-3
CN1C(C(=O)NC2CCCCC2)=CC(c2ccc(F)cc2)=NS1(=O)=O,-2,101,103,-6
CCNc1cc(NCC)c2noc3c2c1C(=O)c1ccccc1-3,-2,112,128,-28
CN(C)c1ccc(C(=S)N2CCN(C(N)=S)CC2)cc1,22,102,110,-45
CCC(=O)N(CCN1C(=O)c2ccccc2C1=O)c1cccc(F)c1,-3,102,102,-1
Cc1ccc2c(c1)-c1c(ssc1=S)C(C)(C)N2C(=O)CN1CCOCC1,15,101,100,-71
Cc1[nH]c(-c2ccc(F)cc2)cc1C(=O)N(C)Cc1ccco1,-72,104,109,-28
O=C(OCCOc1ccc(Br)cc1)c1ccc(Cl)nc1,-18,103,103,-29
# (continued)
SMILES,Mtb MbtI inh,Polio RdRp inh,Polio RdRp inh intensity,Mtb MenB inh
Nc1nc(=S)[nH]c2c1C1(CCCC1)Cc1ccccc1-2,4,103,104,22
Cc1nn(-c2ccc(F)cc2)c(-n2cccc2)c1C(=O)NCCN1CCOCC1,-1,101,100,-10
O=C(O)c1cccc(N=NN2CCOCC2)c1,9,101,103,5
O=C(CNC(=O)c1ccccc1)OCc1c(Cl)cccc1Cl,-3,102,97,.
CC(C)NC(=O)c1nnc(Cc2cccc(Cl)c2)o1,-2,102,99,7
Cc1cc(C=C2C(=O)c3ccccc3C2=O)c(C)n1C,-3,106,105,-81
Cc1nn(-c2ccccc2)c2sc(C(=O)OC3CCCC3=O)cc12 (configuration not stated),6,106,109,-9
Oc1cccc2cnccc12,11,100,100,14
O=C1N(Cc2ccccc2)C(c2ccco2)C1(F)F (configuration not stated),12,100,100,-16
CCCCN(C)S(=O)(=O)c1ccc2c(c1)oc(=O)n2C,4,104,99,3
CCn1cc(C2=NOC(C(=O)Nc3cccnc3)C2)c(C)n1 (configuration not stated),-10,99,101,2
Cc1ccccc1-c1nnc(SCC(=O)N2c3ccccc3Sc3ccccc32)o1,-10,100,102,25
COc1ccc(C(CNC(=O)NCC(c2ccc(OC)cc2)N2CCCCC2)N2CCCCC2)cc1 (configuration not stated),4,98,101,5
O=C1CCC(C(=O)O)(c2ccccc2)C1 (configuration not stated),.,105,107,-16
CC(C)n1nccc1/N=C1\N=C(N)c2ccccc21,23,99,94,-89
C=CCN1C(=O)/C(=C\c2cn(CCOc3ccccc3OC)c3ccccc23)SC1=S,-4,102,110,-8
N#CC(C#N)=C(N)C(C#N)Cc1ccc(C#N)cc1 (configuration not stated),10,101,100,11
COC(CN1C(=O)c2ccccc2C1=O)OC,-2,101,100,-22

# Whole records, quoted from the list.
# Profile of O=C1CCC(c2ccccc2)CC1 → Mtb MbtI inh = -9; Polio RdRp inh = 102; Polio RdRp inh intensity = 101; Mtb MenB inh = .
# Profile of CC(SCC(=O)NC1CCCCCC1)c1nc2ccccc2c(=O)[nH]1 (configuration not stated) → Mtb MbtI inh = 4; Polio RdRp inh = 105; Polio RdRp inh intensity = 107; Mtb MenB inh = 5
